AID504770 = growth inhibition of E. coli YBA685, primary screen, V. cholerae RctB inhibitors; E. coli YBA685 rctB-dependent plasmid, OD600 growth, 3 h; stronger effect = lower value; z-score (test concentration not listed); hit rate 0.27% among 130,000; AID 504770, 2011;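 active = z-score under -2 on both plates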;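 also: wells of about 30 µL received 100 nL stock; score is relative to mean and SD of the test wells; the first replicate is given; strong numbers were not always called active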
Ba CapD inh = Bacillus anthracis CapD inhibitors, primary screen, biochemical, fluorescence intensity; purified CapD enzyme, fluorescence intensity read-out; stronger effect = lower value; some hits fall short of the stated cut; z-score (no concentration beside the values); hit rate 0.23% among 140,000;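 active = z-score under -4 in either of two replicates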;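 also: stock transfer was 100 nL into about 40 µL; score is relative to mean and spread of the plate; one replicate is shown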
* hit, by the source's call; / = no result given. Not a hit list (roughly 0.37% active in at least one column).

SMILES | AID504770 | Ba CapD inh
CCCc1cc(=O)oc2cc(O)cc(O)c12 | -0.85 | 43
O=[N+]([O-])c1ccc2c(c1)C(N1CCOCC1)/C(=C\COc1ccc3ccccc3c1Br)O2 (stereo not given) | / | -0.34
CN(Cc1nc2cc(C(F)(F)F)ccc2c(=O)[nH]1)C1CCCCC1 | 2.2 | /
Cc1cc(CN)c2[nH]c3c(c2c1)CCCC3 | 1.7 | /
CCOC(=O)CN1C(=O)C(=O)N(Cc2ccc(Cl)cc2Cl)C1=O | / | -0.24
O=C(CSc1nnc(Nc2ccccc2)s1)NCC1CCCO1 (stereo not given) | -0.65 | /
COc1ccc(-c2ccc(-c3noc(-c4ccccc4F)n3)c(OC)n2)cc1 | -0.45 | 33
O=C(N=Nc1c(O)[nH]c2ccccc12)C1CC1c1ccccc1 (stereo not given) | -0.35 | /
COc1ccc(-c2[nH]nc3c2C2(C(=O)Nc4ccc(C)c(Br)c42)C(C#N)=C(N)O3)cc1 (stereo not given) | / | -0.57
O=C(Nc1ccc(Oc2ncnc3cc(Cl)ccc23)nc1)c1ccccc1 | -1 | -0.66
Cc1cc(Cl)ccc1OCC(=O)Nc1ncc(Br)s1 | 1.9 | -0.58
CC1(C)CC(NC(=O)CCC(=O)N2C(C)(C)CC(N)CC2(C)C)CC(C)(C)N1 | / | -0.17
Cn1nc(-c2ccccc2)c(C(=O)Nc2ccc(Cl)c(Cl)c2)c1Cl | / | -0.18
OC(COC(C(F)(F)F)C(F)(F)F)CN1CCN(Cc2ccc3c(c2)OCO3)CC1 (stereo not given) | -0.05 | /
COC(=O)c1cc(OCC(=O)Nc2cccc3nsnc23)cc(C(=O)OC)c1 | -0.15 | /
CC1(C)CC(=O)C2=C(C1)Nc1ccccc1N1C(=O)c3ccccc3C21 (stereo not given) | -0.95 | /
O=[N+]([O-])c1cc(C(F)(F)F)ccc1NCCc1ccccc1 | / | 0.22
CCOC(=O)Cn1c(Cl)c(/C=N/NC(=O)c2ccccc2)sc1=O | 0.05 | /
S=c1n(CN2CCOCC2)nnn1C1CCCCC1 | 1.5 | -0.69
CNCc1cnn(-c2ccccc2)c1 | 0 | /
CCOc1c(Br)cc(C2C(C(=O)N3CCCCC3)=C(C)NC3=C2C(=O)CC(C)(C)C3)cc1OC (stereo not given) | / | 21
CCOC(=O)c1c(CNc2cccc(Cl)c2)n(-c2ccccc2)c2cc(Br)c(OC)cc12 | / | -0.1
COc1ccc(C(CC(=O)c2ccccc2)CC(=O)c2ccccc2)cc1 | 1.3 | 0.11
CC1CCC(C(C)C)C(OC(=O)COC(=O)c2cc(S(=O)(=O)N3CCOCC3)ccc2O)C1 (stereo not given) | 1 | /
C=C(C)C1CC=C(C)/C(=N/NC(=O)COc2ccc(C)cc2)C1 (stereo not given) | -0.25 | 0.31
N#CC1=C(N)OC2=C(C(=O)CCC2)C1c1cc(Cl)cc(Cl)c1OC(=O)N1CCOCC1 (stereo not given) | / | 0.02
COc1ccc(/C=C/C=N/n2c(SC)nnc2-c2ccccc2)cc1 | -0.35 | 0.32
CC1=CS/C(=C(/C#N)C(=O)N2CCOCC2)N1c1ccccc1 | 1.6 | -0.77
O=C(O)CCC1NC(=S)N(c2ccccc2)C1=O (stereo not given) | -0.95 | 0.095
CC(=O)Oc1cn(C)c2ccccc12 | -0.1 | 13
CCC(C)Sc1nnc(N)s1 (stereo not given) | -0.6 | /
CSc1nc2cccnc2s1 | 0.35 | 0.13
CC(=O)n1cc(/C=C2/C(=O)NC(=O)N(c3ccc(Cl)cc3)C2=O)c2ccccc21 | / | -0.1
CC1CCCC(NC(=O)COC(=O)/C=C/c2ccc(F)cc2)C1C (stereo not given) | -0.7 | -0.045
CCOC1=NN(c2ccc([N+](=O)[O-])cc2)C(=O)/C1=C/c1ccc(OC)c(OC)c1OC | / | -0.04
Cn1ncc(SCc2ccccc2)c(Cl)c1=O | -1 | -0.12
COc1cc2c(cc1OC)C(C(=O)Nc1ccc(F)c(Cl)c1)CC(=O)N2 (stereo not given) | -0.55 | /
COC(=O)C1=C(C)NC2=C(C(=O)CC(c3ccc(Cl)cc3)C2)C1c1cc(Br)c(O)c(OC)c1 (stereo not given) | / | 5.8
COCc1nc(SCC(=O)OC)c(C#N)cc1C(=O)OC | 0.55 | 11
COc1ccc([N+](=O)[O-])cc1N(CC(O)CN(CC(C)C)CC(C)C)S(=O)(=O)c1ccccc1 (stereo not given) | / | -0.8
C=CCNc1oc(-c2ccc(OC)cc2)nc1C#N | 0.6 | 87
CCN1CCN(C(=O)c2ccc3c(c2)N(Cc2ccc(C)cc2)CCS3)CC1 | 2.6 | -1.2
CCCn1c(NCc2sccc2C)nc2ccccc21 | 0.6 | -0.18
Cc1ccc(S(=O)(=O)N(c2ccccc2)C(F)F)cc1 | -0.1 | -2.2
Cc1nc(SCCN)n[nH]1 | 0 | /
COc1cccc(CNC(=O)CC2C(=O)Nc3c2c(=O)n(C)c(=O)n3Cc2ccccc2)c1 (stereo not given) | 0.2 | /
COc1cccc(C(=O)NC2=NC(CC(C)C)CC(=O)N2)c1 (stereo not given) | -0.05 | 0.76
COc1cc(OC)nc(CSCCNC(=O)c2c(F)cccc2F)n1 | / | -0.31
Cc1ccc(SCC(=O)n2c3ccccc3c3ccccc32)cc1 | -0.55 | 0.15
CCOc1ccc2c(c1)C(=NNC(N)=O)c1cc(OCC)ccc1-2 | / | 0.065
Next section
SMILES | AID504770 | Ba CapD inh
c1csc(-c2nnc(COc3nc4cc5c(cc4nc3N3CCOCC3)OCCO5)o2)c1 | 0.9 | /
O=C(CC(c1ccco1)C1CCCCC1=O)c1ccccc1 (stereo not given) | -1.4 | 0.16
Cc1oc2cc(OC(=O)c3ccco3)ccc2c(=O)c1-c1nc2ccccc2n1C | -0.2 | 0.35
CC(=O)Nc1nc(C)c(-c2cn3cccnc3n2)s1 | / | 11
COc1ccc(Br)cc1C1C2=C(CC(C)(C)CC2=O)OC2=C1C(=O)CC(C)(C)C2 | / | -0.27
O=C1c2cccnc2C(=O)N1C1CCCCC1 | -0.5 | 0.025
COc1ccc2[nH]c(O)c(N=NC(=O)OC(C)(C)C)c2c1 | 0.25 | -0.24
CCOC(=O)C1CCCCN1 (stereo not given) | -0.4 | -0.12
COc1ccccc1CC(=O)Nc1ccc(S(=O)(=O)N(C)C)cc1 | -0.75 | 0.11
COc1ccc(C2CC(=O)C3=C(C2)Nc2ccccc2NC3c2cc([N+](=O)[O-])ccc2Cl)cc1 (stereo not given) | / | -1.2
Cc1ccc(NCC(=O)c2ccc(-n3nncc3-c3ccccc3)cc2)cc1 | -0.35 | 0.14
CC(C)=CCC12CN3CCN(CC(C3)C1O)C2 (stereo not given) | -0.35 | -0.15
Cc1sc2nc3n(c(=O)c2c1C)CCCS3 | -0.9 | -0.49
CN(c1ccccc1)S(=O)(=O)c1cccc(C(=O)c2c(N)n(C)c(=O)[nH]c2=O)c1 | -0.05 | /
CN(CC(=O)O)C1=NS(=O)(=O)c2ccccc21 | -0.05 | /
S=c1sc(Nc2cc(Cl)ccc2Cl)nn1-c1ccccc1 | 0.1 | -0.01
COc1cc(C(=O)Nc2nccs2)cc(OC)c1C | 0.2 | /
CC1CCC(C(C)C)C(OP(N)(=O)c2ccc(N(C)C)cc2)C1 (stereo not given) | 0.15 | /
Cn1ncc(Cl)c(Oc2ccccc2)c1=O | -0.8 | -0.14
CC(C(O)c1ccccc1)N(C)S(=O)(=O)c1cccs1 (stereo not given) | -0.9 | /

Taken from the entries so far, 5 compounds:
SMILES | AID504770 | Ba CapD inh
CC1(C)CC(=O)C2=C(C1)Nc1ccccc1N1C(=O)c3ccccc3C21 (stereo not given) | -0.95 | /
O=[N+]([O-])c1cc(C(F)(F)F)ccc1NCCc1ccccc1 | / | 0.22
CCOC(=O)Cn1c(Cl)c(/C=N/NC(=O)c2ccccc2)sc1=O | 0.05 | /
S=c1n(CN2CCOCC2)nnn1C1CCCCC1 | 1.5 | -0.69
CNCc1cnn(-c2ccccc2)c1 | 0 | /

Compound profiles (already shown). Order of values: AID504770, Ba CapD inh
Profile of S=c1n(CN2CCOCC2)nnn1C1CCCCC1 → 1.5, -0.69
Profile of COc1ccc(C(CC(=O)c2ccccc2)CC(=O)c2ccccc2)cc1 → 1.3, 0.11
Profile of COc1ccc(/C=C/C=N/n2c(SC)nnc2-c2ccccc2)cc1 → -0.35, 0.32
Profile of CCOC(=O)C1CCCCN1 (stereo not given) → -0.4, -0.12

Additional compounds.
SMILES | AID504770 | Ba CapD inh
O=C(CCc1nc2cccnc2n1-c1ccccc1)N1CCCCC1 | 0 | -0.64
Cc1c(C(c2ccc(O)c([N+](=O)[O-])c2)c2c(C)n(C)n(-c3ccccc3)c2=O)c(=O)n(-c2ccccc2)n1C | / | 5.9
CC1=C(C(=O)Nc2ccc(C(=O)N3CCCCCC3)cc2)SCCO1 | -0.55 | 0.14
CS(=O)(=O)N1CCN(C(=O)C2c3ccccc3Oc3ccccc32)CC1 | -0.3 | -0.28
Cc1ccc2nc(-c3ccc4c(c3)NC(=O)CO4)cn2c1 | 0.35 | /
COc1ccc(-c2ccc(=O)n(CC(=O)NCC3CC3)n2)cc1OC | -0.1 | /
O=C1c2ccccc2C(=O)N1CCNCCN1C(=O)c2ccccc2C1=O | -0.25 | -0.23
CC1CN(C2=CC(=O)CCC2)CC(C)O1 (stereo not given) | -0.4 | /
CC(C)NC(=O)c1ccc(CS(=O)(=O)c2ccc(Br)cc2)o1 | 1.9 | -0.65
O=c1[nH][nH]c2ccccc2c1=O | -0.15 | 0.14
O=c1cc(CSc2nnc(N3CCOCC3)n2-c2cccc(F)c2)nc2sc3c(n12)CCCC3 | 0.25 | /
COc1ccc(CNC(=O)CCCn2ncc3ccc(C)cc32)cc1 | -1.1 | -0.24
CN(C)c1ccc(NC(=O)CSc2nc3ccccc3c(=O)n2CC2COc3ccccc3O2)cc1 (stereo not given) | 0.4 | 0.38
CCOc1nc(NCc2ccccc2)nc(NCc2cccnc2)n1 | / | -0.53
Cc1cc(-c2ccccc2C(=O)NC2CCCCC2)on1 | 0 | -0.45
COC(=O)c1ccccc1N=Nc1c(N)[nH][nH]c1=O | -0.4 | -3.1
CCN(CC)C(=O)CSc1nc(-c2ccccc2)cn1N | 0.05 | /
O=C(Nc1ccc(Cl)cc1Cl)c1cccnc1SCCS(=O)(=O)c1ccccc1 | 1.1 | 0.1
O=C(CSc1nc2ccccc2[nH]1)N1CCc2ccccc2C1 | 0.3 | -0.24
O/N=C1/CCN(Cc2ccccc2)C1 | 1 | 0.16
Cc1cccc(NCc2ccc(N(C)C)cc2)n1 | -0.45 | /
Cc1cc(COC(=O)N2CCN(Cc3ccccc3Sc3ccc(Cl)cc3)CC2)ccc1[N+](=O)[O-] | / | -0.53
CCOC(=O)c1nccn1CC(=O)N(CC)c1cccc(C)c1 | -0.4 | -0.28
CCOc1ccc(NC(=O)C(=O)NCCN2CCN(C(=O)c3ccc(C)cc3)CC2)cc1 | / | -0.2
CCc1cccc(NCC(O)Cn2nnnc2-c2ccccc2)c1 (stereo not given) | -0.3 | -0.045
O=C1CN(c2nc(-c3ccccc3)c3ccccc3n2)c2ccccc2N1 | / | -0.07
COCCN(C(=O)C1CC1)c1nnc(-c2cccc(C)c2)s1 | 0.7 | /
Cc1cccn2c(=O)c3cc(C(=O)NC(C)c4ccccc4)c(=N)n(CC4CCCO4)c3nc12 (stereo not given) | 0 | -0.035
CCOc1ccccc1C(=O)Nc1ccc(-c2ccc3nncn3n2)cc1 | 0.15 | /
Clc1ccc(Cn2c(-c3cccnc3Cl)nc3ccccc32)cc1Cl | / | -0.14

Overlap with the part before: 5 entries, followed by the next part.
SMILES | AID504770 | Ba CapD inh
O=C1CN(c2nc(-c3ccccc3)c3ccccc3n2)c2ccccc2N1 | / | -0.07
COCCN(C(=O)C1CC1)c1nnc(-c2cccc(C)c2)s1 | 0.7 | /
Cc1cccn2c(=O)c3cc(C(=O)NC(C)c4ccccc4)c(=N)n(CC4CCCO4)c3nc12 (stereo not given) | 0 | -0.035
CCOc1ccccc1C(=O)Nc1ccc(-c2ccc3nncn3n2)cc1 | 0.15 | /
Clc1ccc(Cn2c(-c3cccnc3Cl)nc3ccccc32)cc1Cl | / | -0.14
O=C(COc1ccccc1Br)N1CCCCC1 | 0.2 | -0.45
Cc1ccc2[nH]c(C)c(CCN(Cc3ccco3)C(=S)Nc3cccc(C)c3C)c2c1 | -0.1 | 6.3
O=c1n(Cc2cccc(C(F)(F)F)c2)nnn1-c1ccccc1 | -0.2 | /
O=S(=O)(NCc1csc(-c2cccs2)n1)c1ccccc1 | 0 | 45
CCC1CN(Cc2ccccc2)CCC1=O (stereo not given) | -0.9 | /
COC(=O)C1=C(C)NC(C)=C(C(=O)OC)C1c1cc2ccc(OC)cc2[nH]c1=O | 0.3 | /
Cc1cccc2cc(CN(C(=O)C(F)(F)F)C3CCCC3)c3nnnn3c12 | 0.15 | /
CC(C)(C)C(=O)C(C#N)=C1SCCCS1 | -0.4 | -2.1
COC(=O)c1cc(-c2ccccc2)sc1N | -0.45 | /
COCCOC(=O)C1=C(C)NC(SCC(=O)Nc2cccc(OC)c2)=C(C#N)C1c1ccccc1Cl (stereo not given) | / | 9.9
CCOC(=O)Cc1csc(SCC(=O)Nc2cccc(C#N)c2)n1 | -0.45 | /
O=C1c2ccccc2C(=O)N1CCCn1c(=O)oc2ccccc21 | -0.1 | 1.8
N=C1C(c2nc3ccccc3[nH]2)=C(O)CN1C1CCCC1 | -1.6 | -0.75

Source: PubChem BioAssay (ICCB-Longwood Screening Facility, Harvard Medical School)
